Bioassay records as filed in PubChem.
Cruzain inh noDet: cruzain (T. cruzi) inhibition without detergent; P25779; purified cruzain, Z-FR-AMC fluorescence, no detergent; Potency, µM, for inactives: max response, negative = inhibition, usual class: inhibitors; 2.3% of 200,000 active; AID 1476;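 further: plate controls were enzyme without inhibitor for no effect and buffer without enzyme for full effect; nearly all actives have a fitted effect of over 40% in size; top concentration of the series not given in the record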
Target sequence (P25779 123-467 limits assumed): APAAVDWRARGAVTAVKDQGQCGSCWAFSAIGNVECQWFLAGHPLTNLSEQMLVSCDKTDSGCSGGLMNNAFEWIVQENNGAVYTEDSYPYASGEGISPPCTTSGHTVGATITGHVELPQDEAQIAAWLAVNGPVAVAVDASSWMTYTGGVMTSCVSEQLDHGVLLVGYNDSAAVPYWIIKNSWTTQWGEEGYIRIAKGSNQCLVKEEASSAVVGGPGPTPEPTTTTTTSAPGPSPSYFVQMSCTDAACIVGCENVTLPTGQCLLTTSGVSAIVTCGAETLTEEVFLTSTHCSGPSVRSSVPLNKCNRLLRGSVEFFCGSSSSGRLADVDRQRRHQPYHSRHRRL
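Detergent-free condition (0.00005% Triton X-100) in acetate buffer pH 5.5 with DTT. 1.5 nM enzyme and compound were pre-mixed 15 min, then 2 uM Z-FR-AMC substrate added; reaction progress from fluorescence change between first and third reads (60 s).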
NS1 inh: blocks influenza NS1 protein function. AID 2326. S. cerevisiae slowed by influenza A NS1, growth recovery by OD600. Potency, µM (top dose mostly 46.1 µM), inactives show top-dose activity, positive = more growth. 0.4% of 270,000 active; active means well fitted rising curve with a large enough effect; inconclusive means small, poorly fitted or top-dose-only effect; inactive means no such curve, though single readings can be large or run the other way; further: nearly all actives have a fitted effect of over 50% in size
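Recovery from NS1-induced slow growth read by OD600 in budding yeast switched to galactose assay medium (pH 6.0, -URA) at 1:100 dilution. Compound 23 nl per well; the matching strain lacking NS1 serves as control.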
StopGo reporter: lowers the luciferase signal of an FMDV 2A StopGo reporter. Potency, µM (titrated, usually from 57.9 µM), for the others: at the highest dose signal change, negative = less light. 1.2% of 410,000 active. AID 1159524. human cells with a luciferase reporter of 2A StopGo recoding; control for the full effect not named in the record; active = well fitted falling curve with a large enough effect; inconclusive = small, poorly fitted or top-dose-only effect; inactive = no such curve, though single readings can be large or run the other way; tested in HEK293T cells; further: on the % scale 0 is the no-effect control and ±100 the full control effect; nearly all actives have a fitted effect of over 45% in size; luciferase light after 4 h
Cruzain inh Det: cruzain (T. cruzi) inhibition with detergent; purified cruzain, Z-FR-AMC fluorescence, 0.01% Triton; 0.43% of 200,000 active; AID 1478; P25779; Potency, µM, without a hit: max response, negative = inhibition, actives largely listed as inhibitors;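 further: plate controls were neutral wells for no effect and buffer without enzyme for full effect; nearly all actives have a fitted effect of over 40% in size; top concentration of the series not given in the record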
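Purified cruzain (1.5 nM final) was preincubated with compounds for 15 min at room temperature in 100 mM sodium acetate pH 5.5, 5 mM DTT, 0.01% Triton X-100. Reaction started with 2 uM Z-FR-AMC; AMC fluorescence change over 60 s gave activity.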
Marburg entry inh: Marburg virus entry inhibition; Marburg virus pseudotyped entry inhibition, cell reporter; control for the full effect not named in the record; about a third of the inactives were read at about 46 µM; Potency, µM (doses to about 37.8 µM), for inactives: at the highest dose activity change, negative = inhibition, usual class: inhibitors; 1.8% of 300,000 active; active = well fitted inhibition curve with a large enough effect; inconclusive = small, poorly fitted or top-dose-only effect, or effect the other way; inactive = flat fitted curve, though single readings scatter; tested in HEK293 cells; about a fifth of its hits are not listed in these tables; further: on the % scale 0 is the no-effect control and ±100 the full control effect; luciferase read-out
RE007 growth inh: less growth of the S. pombe RE007 Vpr strain; S. pombe RE007 Vpr strain, BacTiter-Glo ATP luminescence, 24 h; control for the full effect not named in the record; Potency, µM (top dose mostly 92.2 µM), for the others: at the highest dose activity change, negative = less growth; 0.21% of 360,000 active; AID 651644; active = well fitted falling curve with a large enough effect; inconclusive = small, poorly fitted or top-dose-only effect; inactive = no such curve, though single readings can be large or run the other way;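 further: on the % scale 0 is the no-effect control and ±100 the full control effect; nearly all actives have a fitted effect of over 50% in size; the assay follows cell death caused by Vpr and the record does not say whether a fall means rescue or toxicity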
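Fission yeast strain RE007, carrying one chromosomally integrated HIV-1 vpr copy, was seeded at OD 0.01 in PMG+AL medium with 23 nL pinned compound. After 24 h at 30 °C and 99% humidity, viability was read by BacTiter-Glo luminescence.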
SARS PLpro yeast: inhibitors of SARS-CoV papain-like protease in yeast; S. cerevisiae expressing SARS-CoV PLpro, growth rescue; control for the full effect not named in the record; Potency, µM (series often up to 32.9 µM), for the others: at the top dose activity, positive = growth rescue; 0.19% of 330,000 active; AID 485353; active means well fitted rising curve with a large enough effect; inconclusive means small, poorly fitted or top-dose-only effect; inactive means no such curve, though single readings can be large or run the other way; further: 0% is about no effect; nearly all actives have a fitted effect of over 55% in size; growth read by luminescence after 48 h
Lassa entry inh: inhibitors of Lassa virus binding or cell entry | 1.2% of 300,000 active | Potency, µM (series often up to 37.9 µM), for the others: at the highest dose activity change, negative = inhibition, most hits filed as inhibitors | AID 540256 | Lassa virus pseudotype entry inhibition, cell reporter; control for the full effect not named in the record; active means well fitted inhibition curve with a large enough effect; inconclusive means small, poorly fitted or top-dose-only effect, or effect the other way; inactive means flat fitted curve, though single readings scatter; tested in HEK293 cells; further: on the % scale 0 is the no-effect control and ±100 the full control effect; nearly all actives have a fitted effect of over 50% in size; luciferase read-out
An asterisk follows results filed as active; ? = inconclusive; . = no result given; & = joins results of further samples; [ ] = another dose, or the depositor's remark. Unless noted, the call rests on the fitted dose curve; in most records, active means well fitted curve in the direction sought with a large enough effect; inconclusive means small, poorly fitted or top-dose-only effect, or another doubt; inactive means no such curve, though single readings can be large; an effect the other way counts as inactive or inconclusive. Potency means the concentration at half of the fitted maximal effect.

SMILES	Cruzain inh noDet	NS1 inh	StopGo reporter	Cruzain inh Det	Marburg entry inh	RE007 growth inh	SARS PLpro yeast	Lassa entry inh
COC(=O)c1cc(S(=O)(=O)NCC2CCN(Cc3ccc(F)cc3)CC2)cn1C	-8%	-4%	-16%&-1%	0.4%	.	-16%	3%	-16%[46.1 µM]
O=C(Cc1ccsc1)N1CCN(S(=O)(=O)c2cccc(F)c2)CC1	.	.	-19%	.	-2%	-10%	2%	16%
CC(C)(C)C1CCC(=NNC(=O)CN(c2ccccc2)S(=O)(=O)c2ccccc2[N+](=O)[O-])CC1 (centres undefined)	-5%	?	-26%	-5.1%	4%&15%	11%	-6%	8%&9%
OC1CCCN(CC(O)COc2ccc(-c3ccccc3)cc2)C1 (centres undefined)	.	2%	11%	.	?	9%	1%	14%[46.1 µM]
CC(c1ccccc1)c1nnc(NC(=O)Nc2ccccc2F)s1 (centres undefined)	.	1%	36%[activator]	.	.	2%	1%	.
COc1ccccc1CNC(=O)C/C(C)=N/NC(=O)COc1ccc(C)cc1Br	?	-4%	11%	-5.9%	-32%	-12%	-1%	3%
Cc1ccc(-n2nc(C(=O)Nc3ccc(C)c(F)c3)c(=O)n(C)c2=O)cc1	4%	.	-2%	-5.0%	.	.	.	2%[46.1 µM]
CCCCC(CC)C(=O)NCC(C)NC(=O)C(CC)CCCC (centres undefined)	?	19%	-19%	5.2%	11%	5%	12%	-5%
Cc1cc(N/N=C/c2ccccc2F)nc(NCc2ccccc2)n1	.	-55%	-10%	.	?	4%	-1%	2%
Cc1nc(-c2ccc(S(=O)(=O)Oc3ccccc3Cl)s2)cs1	.	-4%	23%	.	-7%[46.1 µM]	3%	0%	8%[46.1 µM]
COC(=O)c1ccc(NC(=O)CSc2ccc(-c3cccs3)nn2)cc1	-23%	.	1%	-1.3%	.	.	.	?
CCN(CC(=O)NCc1ccccn1)S(=O)(=O)c1ccc(Cl)cc1	-2%	5%	-16%	5.5%	1%	-10%	-5%	3%
COc1ccc(NC(=O)CN(C)C(=O)C(C)Sc2ccccc2)cc1 (centres undefined)	.	-2%	-23%	.	?	1%	-1%	-14%
CCc1cccc(C)c1NC(=O)Cn1ccn(-c2ccc(F)cc2)c(=O)c1=O	-11%	.	-13%	-4.4%	.	.	.	3%[46.1 µM]
Cc1cccc(-n2c(SCC(=O)NCc3ccc4c(c3)OCO4)nc3ccccc3c2=O)c1	-28%	19%	-13%	-2.6%	23%	7%	12%	21%
CN1/C(=C\C=N\NC(=O)c2ccccc2Br)C(C)(C)c2ccccc21	-19%	-21%	-21%	-11%	?	12%	-9%	?
CCC(=O)c1ccc(N2CCCCC2)c(F)c1	.	-2%	49%[activator]	.	22%	-8%	1%	16%
CC1CN(C)C(C)c2c1oc1ccc(N)cc21 (centres undefined)	.	3%	-14%	.	?	-13%	0%	-22%
COC(=O)c1ccc(COc2ccc(/C=N/NC(N)=S)cc2)o1	.	0%	?	.	.	15%	9%	.
COc1cc(/C=C/c2nc(C#N)c(NC3CCCCC3)o2)cc(OC)c1OC	?	.	-1%	33%[activator]	?	.	.	-8%[46.1 µM]
Cc1cccc(N2CCN(C(=O)c3ccc4ccccc4c3)CC2C)c1 (centres undefined)	.	.	0%	.	?	-11%	-12%	?
COc1ccc2nc(-c3ccccn3)[nH]c2c1	.	-1%	30%	.	.	-9%	-10%	.
Cc1nc2ccccc2nc1SCC(=O)N1CCC(C)CC1	-4%	-26%	?	-1.7%	-26%	9%	0%	0%
Cc1cc(NC(=O)NC(=O)c2ccccc2)no1	.	2%	16%	.	13%[46.1 µM]	-16%	-7%	18%[46.1 µM]
COc1ccc(Cl)cc1NC(=O)Cc1c(F)cccc1Cl	-10%	5%	6%	-5.1%	-17%	-1%	-2%	-10%
Fc1ccc(-c2cc(-c3ccccc3)nc(-n3cccn3)n2)cc1	.	4%	?	.	?	-18%	-3%	-12%[46.1 µM]
C[C@H](NS(=O)(=O)c1ccc(Cl)cc1)C(=O)OCC(=O)NC(=O)Nc1ccc2c(c1)OCCO2	7%	0%	-23%	-15%	?	21%	-7%	6%
COc1ccc(OC2CCN(S(=O)(=O)c3ccc(F)cc3)CC2)cc1	.	-7%	-12%	.	?	14%	-2%	?
O=[N+]([O-])c1ccc(S(=O)(=O)Nc2nc(-c3ccccc3)cs2)cc1	.	25%	-7%	.	.	5%	-7%	.
CCN(CC)Cc1c(CC(C)C)oc(C)c1C(=O)O	8%	-3%	1%	2.3%	2%	-3%	2%	-3%
c1ccc2nc3c(cc2c1)CCCCC3	.	3%	18%	.	.	-11%	-2%	.
COc1ccc(C)cc1NC(=O)Cn1nc(N2CCN(c3ccccc3OC)CC2)ccc1=O	?	.	-12%	-3.7%	.	.	.	3%[46.1 µM]
CNCCC(=O)N1c2ccccc2CCc2ccc(NC(=O)OC)cc21	.	-2%	-6%	.	.	-7%	-1%	.
Cc1cccc(-n2nc3c(c2NC(=O)c2c(F)cccc2F)CS(=O)(=O)C3)c1C	.	-8%	-21%	.	-19%[46.1 µM]	-3%	-5%	22%[46.1 µM]
COC(=O)c1c(F)c(F)c(N2CCOCC2)c(F)c1F	1%	-32%	26%	-0.6%	6%	-21%	-8%	22%
O=C(NN=Cc1cc(Cl)ccc1[N+](=O)[O-])c1cccc2ccccc12	.	.	-16%	.	-25%	-8%	.	-25%
O=C(O)c1ccccc1NC(=S)NC(=O)c1cccc2ccccc12	.	3%	-9%	.	12%[46.1 µM]	43%	-1%	0%[46.1 µM]
COc1ccc(C(=O)NCCS(=O)(=O)NCc2ccco2)cc1	.	.	-9%	.	6%	0%	-4%	0%
CNC(=O)N(C)c1ccc(C(O)(C(=O)OC)C(F)(F)F)cc1 (centres undefined)	.	5%	-9%	.	.	18%	1%	.
C[N+](C)(C)c1ccc(/C=N/Nc2nc(Cl)c(C#N)c(Cl)c2Cl)cc1	-20%	-37%	-22%	-19%	22%	-20%	-57%	3%
CC1(C)CC(=O)c2c(oc3c(Cl)cc(NS(=O)(=O)c4ccc(Br)cc4)cc23)C1	-3%	.	9%	-1.5%	-3%[46.1 µM]	.	.	24%[46.1 µM]
O=[N+]([O-])c1ccc(NCCNc2ccc(Cl)nn2)cc1	-9%	-4%	-12%	-1.1%	-20%	-21%	7%	?
Cc1cccc(C)c1NC(=O)CN(C)C(=O)CCc1nc2sc3c(c2c(=O)[nH]1)CCCC3	.	.	-25%	.	?	-5%	-1%	-4%
O=C(c1ccco1)n1c(=S)nc2ccccn21	-13%	-6%	76%[activator]	-8.5%	23%	-4%	-5%	0%
CC(=O)Nc1ccc(C2Nc3ccccc3C(=O)N2C2CCCCC2)cc1 (centres undefined)	9%	4%	31%[activator]	1.5%	4%	8%[3.69 µM]	-1%	1%
Cc1ccc(C(=O)CN2C(=O)c3ccccc3S2(=O)=O)cc1	.	2%	14µM*	.	?	-6%	1%	.
Cc1ccc2scc(N3CCc4ccccc4C3)c(=O)c2c1	8%	.	-8%	-7.4%	.	.	.	26%[46.1 µM]
COc1nc2ccccc2nc1N1CCN(C)CC1	.	2%	0%	.	.	5%	1%	.
Clc1cccc(-c2nn3c(COc4ccccc4)nnc3s2)c1	-18%	-1%	.	3.0%	.	.	-5%	.
Cn1c(=O)n(C)c2cc(NC(=O)c3ccccc3[N+](=O)[O-])c(Br)cc21	.	11%	-4%	.	-5%[46.1 µM]	-2%	0%	-20%[46.1 µM]
Cc1ccn2c(Nc3ccc4c(c3)OCO4)c(-c3ccc(N(C)C)cc3)nc2c1	?	.	35%[activator]	-8.5%	?	.	.	0%[46.1 µM]
CNc1c(NC(=O)c2cc(OC)cc(OC)c2)c(=O)oc2ccccc12	-5%	.	-20%	-3.5%	-18%[46.1 µM]	.	.	-23%[46.1 µM]
COCC(C)NCc1cccc2ccccc12 (centres undefined)	.	-2%	-14%	.	-10%	1%	-1%	9%
N#Cc1ccccc1NC(=O)COc1c(Br)cc(Br)c2cccnc12	?	22%	2%	-4.7%	9%[46.1 µM]	2%	-2%	3%
O=C(NC1CCSc2ccccc21)c1ccc([N+](=O)[O-])cc1 (centres undefined)	.	-5%	-5%	.	?	-14%	-5%	23%[46.1 µM]
COc1ccccc1NC(=O)Nc1cccc(NC(C)=O)c1	.	-6%	-11%	.	?	1%	-1%	-9%[46.1 µM]
O=C(O)C(c1ccccc1)N1C(=O)/C(=C/c2cccs2)SC1=S (centres undefined)	.	5%	-1%	.	8%[46.1 µM]	1%	-1%	11%
COc1ccc(Br)c(C(=O)NCC2CCCCC2)c1	.	13%	9%	.	7%[46.1 µM]	7%	5%	-5%
COc1cc(S(=O)(=O)Nc2ccc(C)cc2)ccc1N=Cc1c(C)[nH]n(-c2ccccc2)c1=O	-22%	2%	75%[activator]	-3.5%	?	-3%	-8%	?
CC(C)OP(=O)(Oc1ccc(C(O)C(Cl)(Cl)Cl)cc1)OC(C)C (centres undefined)	.	1%	-31%	.	.	0%	-1%	.
(list continues)
SMILES	Cruzain inh noDet	NS1 inh	StopGo reporter	Cruzain inh Det	Marburg entry inh	RE007 growth inh	SARS PLpro yeast	Lassa entry inh
CCCCCCC(=O)Nc1nc(C)c(-c2csc(Nc3ccccc3OC)n2)s1	10µM*	19%	-26%	3.9%	.	1%	3%	.
CCOc1ccc(CN(C)C(=O)CNC(=O)C2CCCCC2)cc1OC	.	12%	3%	.	8%[46.1 µM]	-11%	10%	13%[46.1 µM]
CCN(Cc1ccncc1)C(=O)CC1C(=O)NCCN1Cc1ccc(F)c(F)c1 (centres undefined)	.	-7%	-16%	.	.	-2%	1%	.
COc1ccc(-c2c(C(C)=O)c(C)nc3sc4c(c23)NC(c2ccccc2)NC4=O)cc1 (centres undefined)	3%	14%	-6%	2.5%	3%	8%	3%	3%
Cc1ccc(C(=O)NCC(=O)OCc2c(F)cccc2Cl)cc1	.	.	39%[activator]	.	4%	5%	-9%	21%
Cc1ccc2c(c1)nnn2C1CCN(S(=O)(=O)c2ccc(C(=O)N(C)C3CCCCC3)cc2)CC1	12%	-20%	3%	1.0%	?	8%	7%	?
